Screening data as filed in PubChem.
KCNQ2 block – KCNQ2 potassium channel inhibitors, primary screen, cell-based, CHO-K1, FluxOR thallium flux, B-score (AID 2156) | O88943 | B-score at 10 µM | 20 min; hits give low values; only compounds with negative scores are shown here; some inactives read as strong as hits | actives 1.1% (n = 310,000);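 active = fluorescence ratio B-score at most minus 3 library SDs, with starting brightness B-score within 2 library SDs, cut at about -5.5 in these data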
Target sequence (O88943 whole entry, looked up): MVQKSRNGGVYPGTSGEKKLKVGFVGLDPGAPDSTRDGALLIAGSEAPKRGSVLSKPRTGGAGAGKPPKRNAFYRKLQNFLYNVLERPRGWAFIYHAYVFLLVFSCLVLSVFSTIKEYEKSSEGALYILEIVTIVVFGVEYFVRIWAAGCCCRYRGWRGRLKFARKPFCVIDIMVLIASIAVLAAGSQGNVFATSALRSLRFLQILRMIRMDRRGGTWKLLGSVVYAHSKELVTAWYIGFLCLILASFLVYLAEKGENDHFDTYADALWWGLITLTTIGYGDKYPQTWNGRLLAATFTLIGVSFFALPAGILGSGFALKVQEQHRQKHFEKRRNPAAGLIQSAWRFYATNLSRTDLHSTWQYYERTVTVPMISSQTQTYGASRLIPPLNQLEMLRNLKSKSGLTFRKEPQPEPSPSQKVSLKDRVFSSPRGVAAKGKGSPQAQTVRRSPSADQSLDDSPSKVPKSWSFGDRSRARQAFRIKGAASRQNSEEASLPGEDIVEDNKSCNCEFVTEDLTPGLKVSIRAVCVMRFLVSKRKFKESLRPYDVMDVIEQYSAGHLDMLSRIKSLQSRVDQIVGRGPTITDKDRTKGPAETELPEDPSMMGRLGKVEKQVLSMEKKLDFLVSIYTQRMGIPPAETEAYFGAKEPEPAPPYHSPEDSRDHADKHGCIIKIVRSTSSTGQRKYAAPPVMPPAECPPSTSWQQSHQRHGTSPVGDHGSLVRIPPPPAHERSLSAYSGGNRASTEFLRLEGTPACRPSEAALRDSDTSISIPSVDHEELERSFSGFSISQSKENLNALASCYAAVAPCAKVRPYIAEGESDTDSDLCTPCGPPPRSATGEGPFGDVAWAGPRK
KCNQ2 block baseline – recorded beside KCNQ2 block, whose call it bears; B-score; measured here: initial fluorescence intensity artifact check;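 brightness before thallium and not channel activity; 0 = typical well and far values either way flag optical interference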
An asterisk follows results filed as active; i = inactive.

item	molecule	KCNQ2 block baseline	KCNQ2 block
1	Cc1ccccc1Nc1nc(N)nc(CSc2ccc(F)cc2)n1	0.38	i
2	CCCCn1c(SCC(=O)c2ccc3c(c2)OCCO3)nnc1-c1ccoc1C	-0.59	i
3	CSc1ncccc1C(=O)NCCc1ccc(S(N)(=O)=O)cc1	0.06	i
4	CCN(CC)S(=O)(=O)c1cccc(C(=O)NC(C(=O)Nc2nnc(C)s2)C(C)C)c1 (stereo not given)	0.58	i
5	Cc1nc(/N=C(\N)NC(=O)NC2CCCCC2)nc2ccccc12	-0.49	i
6	Cc1ccc(/C=N/N(C)C2=NS(=O)(=O)c3ccccc32)cc1	3.09	i
7	Cc1ccc(S(=O)(=O)N2CCC(C(=O)N/N=C/c3ccccc3[N+](=O)[O-])CC2)cc1	1.35	i
8	O=C(NCC(c1ccco1)N1CCc2ccccc2C1)c1ccccc1Cl (stereo not given)	0.26	i
9	COCCCNc1oc(COc2ccc(Cl)cc2Cl)nc1C#N	-1.43	i
10	CCCCN(Cc1ccccc1)C(=O)C1CCCN(S(=O)(=O)c2cnc[nH]2)C1 (stereo not given)	1.73	i
11	CCOc1ccc(NC(=O)CN(C)C(=O)Cc2c(C)nc3ccccc3c2C)cc1OCC	-1.21	i
12	CN(C)/C=C1\C(=O)N(c2ccc(Oc3ccccc3)cc2)CS1=O (stereo not given)	-0.8	i
13	CCN(CC)C(CNC(=O)c1cc(=O)[nH]c2ccccc12)c1ccccc1Cl (stereo not given)	-1.43	i
14	COc1ccc(CCNC2=C(Cl)C(=O)N(Cc3ccccc3)C2=O)cc1OC	-0.64	i
15	Cc1[nH]c2ccccc2c1/C=N/NC(=O)c1cc(-c2ccncc2)nc2ccccc12	0.51	i
16	O=C(CCN1C(=O)c2cccc3cccc(c23)C1=O)NCc1ccco1	-0.44	i
17	COc1ccc(/C=N/NC(=O)c2[nH]c3ccc(Br)cc3c2-c2ccccc2)cc1	0.16	i
18	Cc1nnc(SCC(=O)NC(=O)Nc2ccc3c(c2)OCCO3)n1N	-0.66	i
19	NC(=S)N/N=C/c1coc2cc(Br)ccc2c1=O	-1.6	i
20	Cn1c(N/N=C/c2c[nH]c3ccccc23)nc2ccccc21	-2.23	i
21	O=C(CC(c1ccccc1)c1cc(Cl)ccc1O)NCCN1CCOCC1 (stereo not given)	-0.69	i
22	COc1cccc(CN2CCNC(=O)C2CC(=O)N2CCOc3ccccc3C2)c1OC (stereo not given)	0.58	i
23	Cc1ccsc1/C=N/NC(=O)c1sccc1C	0.08	i
24	CCn1c(O)c(C#N)c(C)cc1=O	1.25	i
25	O=C(COC(=O)/C=C/c1ccco1)NCc1ccco1	0.22	i
26	COc1ccc(/C=N/NC(=O)CCN2CCCCC2c2cccnc2)cc1Cn1cc([N+](=O)[O-])cn1 (stereo not given)	3.07	i
27	CCC(=O)Nc1ccc(NC(=S)Nc2ccccc2)cc1	0.76	i
28	C=C1CCC(C)C(C)(CCC2=CCOC2=O)C/C=C\C=C/1C(=O)O (stereo not given)	0.07	i
29	CCOC(=O)N1CCN(C(=O)CSCc2ccc(C)cc2)CC1	3.3	i
30	CN(C)/C=C/C(=O)c1ccc(-n2cccc2)cc1	3.21	i
31	CSc1nc(-c2ccccc2)nn1S(=O)(=O)c1ccccc1	-0.73	i
32	O=C(CCSc1nc2cc(Cl)ccc2o1)N1CCOCC1	-0.02	i
33	Cc1c(Cl)c(-c2n[nH]c(=S)n2Cc2ccco2)nn1C	1.47	i
34	Cc1nc2nc(-c3ccccc3)cn2nc1C	0.63	i
35	O=C(CSc1ncn(-c2ccccc2)n1)Nc1ccc2c(c1)OCO2	0.01	i
36	Cc1ccc(NC(=O)CCCc2ccccc2)nc1	0.58	i
37	COCCCN1C(=O)c2ccc(C(=O)Nc3ccccc3OC)cc2C1=O	-0.03	i
38	CCN(CC)CCN1C(=O)/C(=C\c2ccc(Cl)c([N+](=O)[O-])c2)SC1=Nc1ccc(OC)cc1	-2.52	i
39	Cn1c(=O)c(=O)n(C)c2cc(S(=O)(=O)CCC(=O)N3CCOCC3)ccc21	-2.05	i
40	COc1cc(OC)c(OC)cc1/C=N/NC(=S)NCCN1CCOCC1	0.04	i
41	COc1cccc(NC(=O)CSc2nnc(-c3ccoc3C)n2CC2CCCO2)c1 (stereo not given)	-0.72	i
42	CC(Oc1ccccc1)C(=O)Nc1ccccc1O (stereo not given)	1.43	i
43	OC1CCCN(C(=S)Nc2ccc(SC(F)F)cc2)C1 (stereo not given)	-1.64	i
44	O=C(CNC(=O)c1ccc(-c2ccccc2)cc1)OCc1ccc(Cl)cc1	0.45	i
45	Cc1cc(Br)cnc1NC(=S)Nc1ccc(F)cc1F	0.23	i
46	CC(C)c1ccc(NC(=O)Cc2ccc(NC3=NC4CS(=O)(=O)CC4S3)cc2)cc1 (stereo not given)	-0.35	i
47	COc1ccccc1NS(=O)(=O)c1ccc(NC(=O)c2nc3ncccn3n2)cc1	-1.01	i
48	Cc1c(C(=O)Nc2cccc(F)c2)cnn1-c1ccccc1	0.52	i
49	Cc1ccc(NCc2nnc(SCC(=O)Nc3ncc(C)s3)n2CC2CCCO2)c(C)c1 (stereo not given)	-0.26	i
50	COc1cc(/C=C/C(=O)OCC(=O)N2CCc3ccccc3C2)ccc1O	1.18	i
51	CC1CCN(c2oc(-c3cccc4ccccc34)nc2C#N)CC1	0.53	i
52	CN(C)c1ccc(-c2nnn(Cc3ccccc3Br)n2)cc1	-2.41	i
53	O=C(Nn1c(O)c(C=C2N=c3ccccc3=N2)sc1=S)c1ccccc1	0.09	i
54	Cc1cccc(N2CCN(C(=O)c3cccc(N4C(=O)C5CC=CC(C)C5C4=O)c3)CC2)c1C (stereo not given)	1.63	i
55	COC(=O)COc1cccc(NC(=O)COc2ccccc2)c1	0.26	i
56	Cc1nn(C)cc1/C=C/C(=O)c1ccccc1	-0.04	i
57	CCOC(=O)Nc1nc(-c2ccccc2)c(C(=O)c2ccccc2)s1	0.56	i
58	O=C(CSc1nc2ccccc2o1)N1c2ccccc2Sc2ccc(Cl)cc21	1.2	i
59	O=C1c2ccccc2C(=O)N1/N=C/c1ccc(O)c(O)c1O	-1.29	i
60	Cc1cc(C(=O)N/N=C\c2cc(C(C)(C)C)c(O)c(C(C)(C)C)c2)n[nH]1	-0.98	i

In the list so far, these contain a furan ring, fused or not.
item	molecule	KCNQ2 block baseline	KCNQ2 block
2	CCCCn1c(SCC(=O)c2ccc3c(c2)OCCO3)nnc1-c1ccoc1C	-0.59	i
8	O=C(NCC(c1ccco1)N1CCc2ccccc2C1)c1ccccc1Cl (stereo not given)	0.26	i
16	O=C(CCN1C(=O)c2cccc3cccc(c23)C1=O)NCc1ccco1	-0.44	i
25	O=C(COC(=O)/C=C/c1ccco1)NCc1ccco1	0.22	i
33	Cc1c(Cl)c(-c2n[nH]c(=S)n2Cc2ccco2)nn1C	1.47	i
41	COc1cccc(NC(=O)CSc2nnc(-c3ccoc3C)n2CC2CCCO2)c1 (stereo not given)	-0.72	i

Structural class: the entries above with fluorine
item	molecule	KCNQ2 block baseline	KCNQ2 block
1	Cc1ccccc1Nc1nc(N)nc(CSc2ccc(F)cc2)n1	0.38	i
43	OC1CCCN(C(=S)Nc2ccc(SC(F)F)cc2)C1 (stereo not given)	-1.64	i
45	Cc1cc(Br)cnc1NC(=S)Nc1ccc(F)cc1F	0.23	i
48	Cc1c(C(=O)Nc2cccc(F)c2)cnn1-c1ccccc1	0.52	i

(next part)
item	molecule	KCNQ2 block baseline	KCNQ2 block
61	Oc1c(Cl)cc(Cl)cc1CNc1nc2ccccc2[nH]1	1.69*	-6.17*
62	O=C(Cn1c(=O)n(Cc2ccco2)c(=O)c2c3c(sc21)CCCC3)Nc1ccccc1	0.25	i
63	CC(NC(=O)Cc1cccs1)c1ccncc1 (stereo not given)	1.12	i
64	COc1ccc(N=C2SC(C(=O)N3CCN(c4ccc([N+](=O)[O-])cc4)CC3)CC(=O)N2C)cc1 (stereo not given)	-0.1	i
65	COC(=O)c1ccccc1NC(=O)C1CC(=O)N(c2ccc(C)cc2)C1 (stereo not given)	1.08	i
66	CCOC(=O)[C@@H]1[C@H]2COc3ccc(Br)cc3[C@H]2N2C(=O)N(c3ccc(Cl)cc3)C(=O)[C@@]12C	0.56	i
67	COc1ccc(CN(C(C)=O)c2cccc(C)c2C)cc1	-1.3	i
68	N#C/C(=C\c1ccc(N2CCOCC2)cc1)c1ccccc1	2.26	i
69	COCCCNC(=S)NCCc1ccc(F)cc1	-1.45	i
70	CCn1cc(Br)c(C(=O)Nc2ccccc2C(=O)OC)n1	0.01	i
71	Nc1nc(-c2ccc(Cl)cc2)c(N=Nc2ccc(S(=O)(=O)N3CCOCC3)cc2)s1	-2.73	i
72	O=c1[nH]c(C2CCN(S(=O)(=O)Cc3ccccc3)CC2)nc2c1nnn2Cc1ccccc1Cl	0.22	i
73	COc1cc(S(=O)(=O)N2CCN=C2c2ccccc2)ccc1F	0.83	i
74	CCN(CC(=O)Nc1c(F)cccc1F)C(=O)c1ccc(C)c(S(=O)(=O)N2CCCCC2)c1	0.24	i
75	C/C(=N/NS(=O)(=O)c1cc(C)ccc1C)c1ccncc1	1.26	i
76	O=C(CS(=O)(=O)c1ccccc1)Nc1ccc(S(=O)(=O)Nc2ncccn2)cc1	2.24	i
77	CCOc1ccc(N(CC(=O)Nc2nccs2)S(=O)(=O)c2c(C)[nH]c(=O)[nH]c2=O)cc1	-0.03	i
78	O=C(Nc1nc2ccccc2s1)C1CCCO1 (stereo not given)	0.76	i
79	Cc1ccc(S(=O)(=O)Nc2nc3c(s2)C(=O)CC(C)(C)C3)cc1	-1.77	i
80	CC1(C)Cc2cccc(OCC(=O)NC3CC3)c2O1	-0.95	i
81	Cn1c(/C=C/c2cccc([N+](=O)[O-])c2)c([N+](=O)[O-])c(=O)n(C)c1=O	0.06	i
82	O=S(=O)(Cc1ccccc1)N=Nc1c(O)[nH]c2ccc(Br)cc12	-1.34	i
83	O=C(NCc1ccccn1)c1ccc(N2CCCC2)c([N+](=O)[O-])c1	-0.39	i
84	COc1ccc(N2CCN(CCCNC(=O)C3CCCN(S(=O)(=O)c4c(C)n[nH]c4C)C3)CC2)cc1 (stereo not given)	0.39	i
85	NC(N)=NS(=O)(=O)c1ccc(NC(=S)NC(=O)c2sc3ccccc3c2Cl)cc1	-0.86	i
86	CCn1cc(C(=O)N2CCN(c3cccc(C)c3C)CC2)c(=O)c2ccc(C)nc21	0.03	i
87	OC1(c2cccc(C(F)(F)F)c2)CCN(CCN2CCCCC2)CC1	-2.01	i
88	C/C(CC(=O)Nc1ccc(C)c(Cl)c1)=N\NC(=O)c1cccc(O)c1	-0.29	i
89	Cc1nc2ccccc2c(=O)n1Cc1ccco1	-1.68	i
90	CCCOc1ccc(C2Nc3cccc4cccc(c34)N2)cc1	-0.6	i
91	COc1ccc(OC)c(/C=C/C(=O)Nc2ccc(OC)nc2)c1	0.09	i
92	C#CCOc1ccccc1/C=C1/C(=O)ON=C1C	1.75	i
93	COc1ccc(CN2C(=O)CN(C3CCCCCC3)C(=O)C2c2ccc(OC)c(OC)c2)cc1 (stereo not given)	1.09	i
94	Cc1ccccc1-n1nc(C)c2cc(C(=O)NC3CC3)sc21	0.32	i
95	C=CCN1C(=O)CS/C1=N\N=C\c1cccc([N+](=O)[O-])c1	1.19	i
96	COc1ccc(NC(=O)CCCN2C(=O)C(c3ccccc3)Oc3cccnc32)c(OC)c1 (stereo not given)	0.68	i
97	Nc1nonc1C(=O)N1CCCC1	-0.35	i
98	O=C(CCCN1C(=O)c2ccccc2C1=O)NCc1ccco1	1.53	i
99	COc1ccc(N2CCc3c(C)nc4c(OC)cc(OC)cc4c32)c(OC)c1	-1.44	i
100	Cc1ccccc1-n1nc2c(c1NC(=O)c1cc3ccccc3oc1=O)CS(=O)C2 (stereo not given)	-1.9	i
101	O=C(/C=C/c1cccs1)c1cc(F)ccc1OC(=O)N1CCOCC1	0.26	i
102	CCOc1ccc(-c2noc(CCCC(=O)NC3CCCC3)n2)cc1OC	-1.67	i
103	O=C(CN1C(=O)NC2(CCCC2)C1=O)Nc1ccc(Cl)cc1F	2.41	i
104	COc1ccc(CNC(=O)C(OC(=O)c2nsc(Cl)c2Cl)C(C)C)cc1 (stereo not given)	-0.12	i
105	Cc1cccc(-c2csc(N)c2C(=O)OC(C)C)c1	-0.79	i
106	Cc1csc(NC(=O)c2c(O)c3c(n(CC(C)C)c2=O)CCCC3)n1	1.43	i
107	CN1C(=O)/C(=C\c2ccc(N(C)C)cc2)OC1=S	7.14	i
108	CC(CC(=O)Nc1nnc(CC(C)(C)C)s1)c1ccccc1 (stereo not given)	1.16	i
109	COc1c(F)c(F)c(C(=O)Nc2ccccc2N2CCN(C(=O)C(C)C)CC2)c(F)c1F	0.06	i
110	CCCOc1cccc(C(=O)N(Cc2ccc(OC)c(OC)c2)C2CCS(=O)(=O)C2)c1 (stereo not given)	0.22	i
111	O=c1c2c(nc3nc[nH]n13)CCC2	-0.12	i
112	CCSC1=NCCN1S(=O)(=O)c1ccc2ccccc2c1	0.16	i
113	O=C(CSc1nnnn1-c1ccccc1)NC1CCCc2ccccc21 (stereo not given)	0.47	i
114	O=C(Cc1ccc(Cl)cc1)N1CCN(c2ccccc2)CC1	1.33	i
115	O=c1[nH]cnc2cc(-c3ccccc3)sc12	-2.26	i
116	Cc1cccc(NC(=O)CCC2CCN(C(=O)c3ccc(C)s3)CC2)c1	-0.05	i
117	Cc1ccc(N=C2S/C(=C\c3cn(CC(=O)O)c4ccccc34)C(=O)N2C)cc1	-0.1	i

The list is partial; rates above refer to the full screens.
